# Source: PubChem BioAssay
# YopH inh: inhibitors of Yersinia enterocolitica YopH tyrosine phosphatase; fluorescence Ex485/Em525; inhibition, %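 (about 10 µM by stock and volumes)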; actives 0.16% (n = 140,000);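 active = inhibition of 50% or more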;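 note: controls were vehicle for no effect and minimum signal wells for full effect; inactives centre near -20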
# Mtb betalactam: beta-lactam sensitization of Mtb H37Rv; M. tuberculosis H37Rv growth with meropenem, percent inhibition; hits of this screen are not shown here; inhibition, % at 25 µM; actives 0.27% (n = 330,000); AID 434955;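 active = about 74% or more and at least 40 points above the plate without the antibiotic, then above 30% in a dose series; inconclusive = first-round hits that could not be retested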;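 note: growth measured after seven days incubation then overnight dye step; 0% = bacteria only wells and 100% = bacteria with antibiotic; twin plates without the antibiotic show which effects depend on it; some results filed as inactive read as strong as hits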
# Arbovirus inh: arbovirus infection inhibition; inhibition, % at 10 µM; arbovirus infection cell-based antiviral screen; actives 0.37% (n = 200,000);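 active = inhibition from about 30%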;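 note: bluetongue infection of BSR cells; cell survival read as ATP light after 72 h; 0% = infected wells without compound and 100% = uninfected wells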
# RecA intein inh: blocks M. tuberculosis RecA intein splicing; cell-free RecA intein splicing, fluorescence; inhibition, %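 (about 9 µM by stock and volumes)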; actives 0.75% (n = 290,000); AID 2221; in the data active = inhibition above about 30%; inconclusive = no clear call, values can overlap the other calls;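 note: 0% = vehicle wells and 100% = reference inhibitor control wells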
# Target sequence (P9WHJ3 whole entry, looked up): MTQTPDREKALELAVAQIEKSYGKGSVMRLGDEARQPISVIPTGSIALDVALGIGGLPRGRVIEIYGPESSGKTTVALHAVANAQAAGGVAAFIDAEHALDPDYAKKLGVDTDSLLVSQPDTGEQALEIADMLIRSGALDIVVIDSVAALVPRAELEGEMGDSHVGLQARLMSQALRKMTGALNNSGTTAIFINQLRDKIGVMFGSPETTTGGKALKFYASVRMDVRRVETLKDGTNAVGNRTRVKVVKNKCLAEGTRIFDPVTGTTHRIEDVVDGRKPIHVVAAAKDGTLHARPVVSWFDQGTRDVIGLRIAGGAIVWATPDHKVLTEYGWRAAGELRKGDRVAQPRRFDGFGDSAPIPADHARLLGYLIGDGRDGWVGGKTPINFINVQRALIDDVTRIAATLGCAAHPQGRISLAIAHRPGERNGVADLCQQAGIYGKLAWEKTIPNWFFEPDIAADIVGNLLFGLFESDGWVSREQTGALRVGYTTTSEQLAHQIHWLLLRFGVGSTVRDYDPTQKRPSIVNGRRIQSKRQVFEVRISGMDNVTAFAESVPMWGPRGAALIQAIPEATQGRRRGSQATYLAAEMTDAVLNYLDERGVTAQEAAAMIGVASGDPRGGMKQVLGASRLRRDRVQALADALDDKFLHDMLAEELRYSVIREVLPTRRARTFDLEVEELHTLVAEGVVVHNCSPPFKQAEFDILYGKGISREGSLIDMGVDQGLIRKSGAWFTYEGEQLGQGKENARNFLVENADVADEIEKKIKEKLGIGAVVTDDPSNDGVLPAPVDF
# Mtb growth: M. tuberculosis H37Rv growth inhibitors, H37Rv strain (AID 1626). M. tuberculosis H37Rv growth inhibition; higher % means a stronger effect. inhibition, % at 10 µM, or IC50 in µM where a hit was titrated. actives 0.95% (n = 220,000);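 active = confirmed in a dose series; inconclusive = inhibition above 80% but not taken into the dose series; inactive = below 80% or under 30% at every dose of the series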;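 note: bacteria incubated seven days before Alamar blue readout; 0% = bacteria only wells and 100% = bacteria with antibiotic wells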
# Arbovirus inh repeat: recorded beside Arbovirus inh, whose call it bears; inhibition, %; measured here: 10K subset replicate screen; many hits read low in the repeat;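 first of two repeat runs on a subset; 0% = infected and 100% = uninfected wells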
# Numbers without * were called inactive; u = inconclusive; x = not tested or not shown. Not all compounds are listed; the hit share may differ from the screen's.
SMILES,YopH inh,Mtb betalactam,Arbovirus inh,RecA intein inh,Mtb growth,others
CC1(C)CC(=O)c2cc(C(=O)N3CCN(CCO)CC3)c(=O)n(-c3ccc(Cl)cc3)c2C1,0,5,12,0.6,-8%,Arbovirus inh repeat=2
Cc1c(C(=O)CN2CCN(c3ccccc3)CC2)c2ccccc2n1C,x,1,x,1.8,x,
O=C(NCCc1ccccc1F)[C@@H]1CSC2c3ccccc3C(=O)N21 (some centres undefined),-9,-2,12,1.9,-3%,
COCCNC(C(=O)Nc1ccc([N+](=O)[O-])cc1Br)c1ccccc1 (centres undefined),-20,-2,0,3.5,4%,
CCOc1nc(OCC)c2cnn(C)c2n1,x,4,x,1.5,-4%,
COc1ccc2c(c1OC)C(=O)N1c3ccccc3N=C(c3ccc([N+](=O)[O-])cc3)CC21 (centres undefined),-31,0,0,x,-3%,
COc1cc(C2NC(=O)NC(C)=C2C(=O)OCC2CCCO2)cc(OC)c1OC (centres undefined),x,3,-1,0.5,-4%,
O=C(Nc1cccc(O)c1)C1CCCN1C(=O)OCc1ccccc1 (centres undefined),-40,-4,17,3.3,1%,
CN1c2ccsc2C(O)=C(C(=S)Nc2ccccc2)S1(=O)=O,-30,1,0,-4.6,-13%,
Cc1cccc(OCCC(=O)Nc2ccc(F)c(F)c2)c1,x,-3,6,-0.1,6%,
CCC(=O)N1CCN=C1SCc1ccccc1,-8,0,-2,0.6,0%,
CCn1c(=O)cc(SCC(=O)N2CCN(c3ccccn3)CC2)c2ccccc21,-26,x,-15,1.3,x,
CN1C(=O)N(C)c2cccc3cccc1c23,x,0,x,-0.5,x,
C=CCn1c(SCc2ccc(C(=O)Nc3ccccc3)cc2)nnc1-c1ccccc1,-5,-2,-4,2.5,-6%,
CC(=O)Nc1c2c(nn1-c1ccccc1C)CS(=O)C2 (centres undefined),x,2,x,-1.7,x,
O=C(COc1ccc(Cl)cc1)NCc1nnc(SCC(=O)Nc2ccc(F)cc2F)o1,x,-1,-2,0.0,-3%,
O=C(NCC1CCCO1)c1cccc(N2C(=O)C3C4C=CC(C4)C3C2=O)c1 (centres undefined),-11,-11,2,-1.5,-9%,
Cc1ccc(/C(O)=C2\C(=O)C(=O)N(Cc3cccnc3)C2c2ccccc2[N+](=O)[O-])cc1 (centres undefined),-40,0,-2,-1.3,-1%,
COCCNC(=O)c1cc2c(=O)[nH]c3ccccc3c2s1,x,-5,x,0.6,x,
CCN1CCN(Cc2cc(C(C)(C)C)c(O)c(C(C)(C)C)c2)CC1,-23,-6,9,0.8,x,
Cc1ccc(C(=O)CC(=O)c2ccc(C)cc2O)cc1,x,73,x,0.6,x,
O=C(COC(=O)/C=C/c1nc2ccccc2s1)Nc1ccccc1Oc1ccccc1,-22,1,-5,14,5%,
Cc1ccc(/C=C/c2nnc(-c3cccc(C)c3)o2)cc1,-28,6,-1,0.9,-2%,
O=C(CCc1ccc(O)cc1)c1c(O)cc(O)cc1O[C@@H]1O[C@H](CO)[C@@H](O)[C@H](O)[C@H]1O,x,1,x,-2.4,x,
Cc1ccccc1-n1c(C)nnc1SCC(=O)N(C)C1CCS(=O)(=O)C1 (centres undefined),x,3,7,-3.1,-2%,
CCc1ccc(NC(=O)CC2C(=O)N(c3ccc(C)cc3)C(=O)N2CCc2ccncc2)cc1 (centres undefined),x,-3,1,x,-10%,
O=C(Nc1ccc(N2CCN(C(=O)c3ccc(Cl)cc3)CC2)cc1)c1ccc2c(c1)OCCO2,0,6,2,-2.7,-4%,
O=C(Nc1ccc(S(=O)(=O)Nc2ncccn2)cc1)c1ccc2ncsc2c1,x,-2,x,20,6%,
CCOC(=O)c1cnn(-c2ccccc2)c1-c1ccncc1,x,2,x,1.0,x,
CN(C)/C=C(\C#N)C(=O)N/N=C/c1ccccc1,x,-11,1,-5.2,-1%,
O=C(NC(=S)NNS(=O)(=O)c1ccccc1)c1ccc([N+](=O)[O-])cc1,-31,0,5,8.7,-5%,
Cc1ccc(C(=O)N2CCCC(N3CCN(c4ccccc4F)CC3)C2)s1 (centres undefined),x,10,x,-1.4,x,
Cc1cc(C)cc(OC(=O)N2CCOCC2)c1,-127,-5,1,0.2,-2%,
CCC(=O)c1ccccc1OCCSc1nc(C)cc(=O)[nH]1,-32,-1,5,-1.3,0%,
O=C(Cc1ccccc1)Nc1ncccn1,x,-2,x,-5.9,x,
Cc1ccc2cc(CNC(C)(C)C)c(=O)[nH]c2c1,-12,-16,-3,-5.4,-5%,
Cc1ccc(/C=C2/SC(=S)N(CCCC(=O)Nc3ccc(O)cc3)C2=O)cc1,x,x,5,13,14%,
COc1ccc(NC(=O)N(Cc2cc3ccc(OC)cc3[nH]c2=O)CC2CCCO2)cc1 (centres undefined),x,-4,-24,1.1,-5%,
Cc1cccc(-c2cccc(NC(=O)C3CCCN(C(=O)c4ocnc4C)C3)c2)c1 (centres undefined),x,-2,x,5.7,x,
CCOc1ccccc1NC(=O)C(Sc1ccccc1)c1ccccc1 (centres undefined),-23,0,-4,5.4,-7%,
N#C/C(C(=O)Oc1ccccc1)=C1/Nc2ccccc2-c2ccccc21,-1,x,-11,-52,x,
Cn1c2c(c(=O)n(C)c1=O)C(c1ccc(Br)cc1)C(C#N)=C(N)N2 (centres undefined),x,10,x,0.6,x,
O=C(CCN1C(=O)C2C3C=CC(C3)C2C1=O)Nc1nccs1 (centres undefined),-18,40,5,-1.4,-5%,
CC(=O)Nc1ccc(NC(=O)CSc2nnc(NC(=O)C3CC(=O)N(c4ccccc4)C3)s2)cc1 (centres undefined),x,-9,x,1.9,x,
CCN1C(=O)Cc2cc(S(=O)(=O)N3CCOCC3)ccc21,9,-3,0,28,3%,

# Pulled by compound from above (6):
SMILES,YopH inh,Mtb betalactam,Arbovirus inh,RecA intein inh,Mtb growth,others
N#C/C(C(=O)Oc1ccccc1)=C1/Nc2ccccc2-c2ccccc21,-1,x,-11,-52,x,
O=C(CCN1C(=O)C2C3C=CC(C3)C2C1=O)Nc1nccs1 (centres undefined),-18,40,5,-1.4,-5%,
COc1ccc(NC(=O)N(Cc2cc3ccc(OC)cc3[nH]c2=O)CC2CCCO2)cc1 (centres undefined),x,-4,-24,1.1,-5%,
CCOc1ccccc1NC(=O)C(Sc1ccccc1)c1ccccc1 (centres undefined),-23,0,-4,5.4,-7%,
O=C(Cc1ccccc1)Nc1ncccn1,x,-2,x,-5.9,x,
O=C(NC(=S)NNS(=O)(=O)c1ccccc1)c1ccc([N+](=O)[O-])cc1,-31,0,5,8.7,-5%,

# Copied from the listing for reference:
SMILES,YopH inh,Mtb betalactam,Arbovirus inh,RecA intein inh,Mtb growth,others
CC(=O)Nc1ccc(NC(=O)CSc2nnc(NC(=O)C3CC(=O)N(c4ccccc4)C3)s2)cc1 (centres undefined),x,-9,x,1.9,x,
CCN1C(=O)Cc2cc(S(=O)(=O)N3CCOCC3)ccc21,9,-3,0,28,3%,

# (listing goes on)
SMILES,YopH inh,Mtb betalactam,Arbovirus inh,RecA intein inh,Mtb growth,others
CCC(=O)N1CCN(c2ccc(NC(=O)c3cccs3)cc2)CC1,-13,-22,3,-0.2,-11%,
COC(=O)/C=c1/s/c(=C(/C#N)C(=O)N2CCCCC2)n(-c2ccccc2)c1=O,-33,-4,-2,0.1,-10%,
Cc1ccc(OCC(=O)NNC(=S)NC(=O)c2cccs2)c(C)c1,x,96,x,0.1,x,
COc1ccc(N2CCN(c3nc4ccccc4n3CC(=O)c3ccccc3)CC2)cc1,18,6,11,-0.7,10%,
CCC1Oc2ccc(C)cc2N(CC(=O)NCCN2CCCCCC2)C1=O (centres undefined),-36,8,5,0.4,0%,
CC1(Cc2ccc3c(c2)OCO3)NC(=O)NC1=O (centres undefined),-46,-6,3,-2.4,2%,
O=C(CCC(=O)NC1CC1)Nc1nnc(C2CCCCC2)s1,-48,-5,-4,1.9,0%,
C/C(=N\N(C)C)c1ccc(OCCOc2ccc([N+](=O)[O-])cc2)cc1,x,11,x,-2.6,x,
O=c1c2cc(Cl)ccc2nc(-c2ccc([N+](=O)[O-])cc2)n1O,x,96,-3,0.9,u,
CCN(c1cccc(C)c1)S(=O)(=O)c1c(C)[nH]c(=O)[nH]c1=O,-48,9,3,-0.9,7%,
CN(C)CCNC(=O)NC(=O)c1ccc(Cl)cc1,-27,-18,-1,1.5,-3%,
Cc1noc(C)c1COc1ccc(C(=O)OCC(=O)Nc2ccc3ccccc3c2)cc1,-4,44,2,1.3,69%,
O=C(Nc1cccnc1)c1ccc(Cl)c(S(=O)(=O)N2CCc3ccccc32)c1,x,6,-25,21,10%,
CC(C)COc1ccc(/C=C2/Sc3ccccc3C2=O)cc1,-24,-2,-5,-8.6,-1%,
Cc1ccc(S(=O)(=O)Cn2nnnc2C(C(C)C)N2CCC(O)CC2)cc1 (centres undefined),x,1,x,-2.8,x,
CCOc1ccc(OCCSc2nc3ccccc3c(=O)[nH]2)cc1,-35,0,-12,-2.4,-14%,
Cc1nnc(N/N=C/c2c(Cl)cccc2Cl)n1N,x,-1,-2,6.2,3%,
N#CCCN(C(=O)COc1ccc(F)cc1Br)c1ccccc1F,x,8,11,0.0,8%,
Cc1cccc(N(CC(=O)NCc2ccc(F)cc2)C(=O)c2ccco2)c1,x,-4,x,1.3,x,
COc1cccc(Nc2ncnc3c2cnn3-c2cccc(C)c2)c1,-17,23,-9,-0.9,6%,
Cc1ccc(-c2nn3c(C)nnc3c3ccccc23)cc1S(=O)(=O)NCCN1CCOCC1,-28,-7,-15,-3.8,-4%,
Cc1ccc(S(=O)(=O)N2CCN(c3ccc([N+](=O)[O-])c(NCCN4CCOCC4)c3)CC2)cc1,-20,2,0,-0.6,-4%,
CCCCCCCC(=O)OC(CN1CCCCC1)CN1CCCC1=O (centres undefined),-4,-2,5,-0.1,-17%,
CC(=O)c1cccc(NC(=O)N(c2ccccc2)c2ccccc2)c1,x,-5,x,-1.4,x,
COc1ccc(NC(=O)CSc2nc(=O)n(CCN(C)C)c3c2CCCC3)cc1,x,1,x,-0.1,x,
Clc1ccc(Oc2ncnc3oc(-c4ccccc4)cc23)cc1,-16,-1,2,0.4,4%,
O=C1/C(=C/c2cccnc2)CCc2c1[nH]c1ccccc21,x,18,4,24,-3%,
CNC(=O)c1cccn(Cc2cc(C(F)(F)F)cc(C(F)(F)F)c2)c1=O,x,4,-3,1.9,6%,
COc1ccc(S(=O)(=O)N2Cc3ccccc3CC2C(=O)Nc2ccc(O)cc2)cc1OC (centres undefined),-32,-8,-8,3.4,5%,Arbovirus inh repeat=-9
Cc1ccccc1OCC(=O)NCC(C)(C)N1CCOCC1,x,-5,x,-1.8,x,
O=C(Nc1ccccc1N1CCOCC1)c1ccccc1NS(=O)(=O)c1ccc(F)c(F)c1,7,-15,2,7.1,0%,
COc1ccc(NC(=O)c2c[nH]c(=O)n(-c3ccc(C)c(C)c3)c2=O)cc1OC,x,7,10,-0.5,x,
Cn1c(CNc2ccc(Cl)cc2)nc2ccccc21,4,-1,1,-0.2,12%,
C/C(=N\NC(=O)CCn1nnc2ccccc21)c1cccs1,x,-5,x,3.6,4%,
Cc1ccc(NC(=S)NCc2ccc(F)cc2)cc1,x,2,x,5.9,x,
Cn1c(=O)n(C)c2cc(NC(=O)c3cc4ccccc4o3)ccc21,-1,-3,-6,-0.9,-16%,
O=C(O)c1cccc(S(=O)(=O)Nc2ccc(OCc3ccccc3)cc2)c1,x,-10,x,-0.7,x,
O=C(Nc1cccc(S(=O)(=O)N2CCOCC2)c1)c1cc2ccccc2o1,x,-9,x,-5.6,2%,
CC(C)c1ccc(-n2cnn(-c3ncccc3[N+](=O)[O-])c2=O)cc1,x,-3,10,-9.1,4%,
COc1cc(C=C2C(=O)NC(=O)NC2=O)ccc1OS(=O)(=O)c1ccccc1[N+](=O)[O-],x,-4,x,-2.3,x,
C/C(=N/NC(=O)CSc1nc2ccccc2n1C)c1ccncc1,x,-5,-5,-6.8,-3%,
Clc1ccc(-c2c[n+](Cc3ccc(Cl)cc3Cl)c3n2CCCCC3)cc1,x,7,x,3.4,12%,
c1ccc(C2[C@H]3CN(CC4CCCCC4)[C@H](c4ccccc4)C34CC2(c2ccccc2)C4)cc1 (some centres undefined),x,0,x,11,6%,
C=CCn1c(SCC(N)=O)nc2scc(-c3ccc(C)o3)c2c1=O,x,1,-5,0.1,6%,
Cc1nn2c(N)c(-c3ccccc3)cnc2c1-c1ccc(Cl)cc1,x,3,x,7.4,x,
COc1c(OC)c2[nH]c(=O)cc3c4ccccc4n(c1=O)c23,x,-6,x,-305,x,
COc1cccc(C(=O)/C=C/Nc2ccc(S(=O)(=O)Nc3cccc(C(C)=O)c3)cc2)c1,-20,11,14,-2.4,5%,
C=C(C)c1cccc(C(C)(C)NC(=O)N2CCN(c3ccccc3)CC2)c1,x,4,x,3.6,-6%,
CCOC(=O)C1CCCN(Cc2nc(N)nc(Nc3ccc(Cl)cc3)n2)C1 (centres undefined),-7,79,8,2.7,49%,
